Cruzain noTriton – cruzain (T. cruzi) inhibition without detergent; purified cruzain, Z-FR-AMC fluorescence, no detergent; hit rate 2.3% among 200,000; P25779; AID 1476; Potency, µM, without a hit: max response, negative = inhibition, most hits filed as inhibitors; active = well fitted curve in the direction sought with a large enough effect; inconclusive = small, poorly fitted or top-dose-only effect, or another doubt; inactive = no such curve, though single readings can be large; an effect the other way counts as inactive or inconclusive;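 also: plate controls were enzyme without inhibitor for no effect and buffer without enzyme for full effect; nearly all actives have a fitted effect of over 40% in size; top concentration of the series not given in the record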
Target sequence (P25779 123-467 limits assumed): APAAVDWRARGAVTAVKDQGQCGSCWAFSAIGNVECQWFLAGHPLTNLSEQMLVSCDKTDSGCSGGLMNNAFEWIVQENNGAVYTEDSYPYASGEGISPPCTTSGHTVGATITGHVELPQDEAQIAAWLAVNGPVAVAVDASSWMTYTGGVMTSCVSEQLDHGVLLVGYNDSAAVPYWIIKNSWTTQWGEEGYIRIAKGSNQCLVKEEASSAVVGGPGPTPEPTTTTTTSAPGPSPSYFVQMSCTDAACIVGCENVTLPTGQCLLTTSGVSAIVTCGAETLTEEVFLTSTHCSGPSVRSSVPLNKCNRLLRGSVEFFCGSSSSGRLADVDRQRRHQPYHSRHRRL
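Detergent-free condition (0.00005% Triton X-100) in acetate buffer pH 5.5 with DTT. 1.5 nM enzyme and compound were pre-mixed 15 min, then 2 uM Z-FR-AMC substrate added; reaction progress from fluorescence change between first and third reads (60 s).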
NS1 inh – inhibitors of influenza NS1 protein function. S. cerevisiae slowed by influenza A NS1, growth recovery by OD600. Potency, µM (doses to about 46.1 µM), for inactives: at the highest dose activity, positive = more growth. hit rate 0.4% among 270,000; also: actives are rising curves; nearly all actives have a fitted effect of over 50% in size
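In this qHTS, NS1 from influenza A is expressed in budding yeast, where it slows growth. Cells are switched from glucose to 2% galactose medium (pH 6.0, -URA), treated with compound, and growth recovery is read at OD600.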
Cruzain Triton – cruzain (T. cruzi) inhibition with detergent | P25779 | purified cruzain, Z-FR-AMC fluorescence, 0.01% Triton | Potency, µM, for inactives: max response, negative = inhibition, actives largely listed as inhibitors | hit rate 0.43% among 200,000 | AID 1478; active = well fitted curve in the direction sought with a large enough effect; inconclusive = small, poorly fitted or top-dose-only effect, or another doubt; inactive = no such curve, though single readings can be large; an effect the other way counts as inactive or inconclusive;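 also: plate controls were neutral wells for no effect and buffer without enzyme for full effect; nearly all actives have a fitted effect of over 40% in size; top concentration of the series not given in the record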
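Cruzain (1.5 nM) preincubated 15 min at RT with compound in 100 mM sodium acetate pH 5.5, 5 mM DTT, 0.01% Triton X-100. Reaction started with 2 uM Z-FR-AMC; AMC fluorescence (ex 360/em 450 nm) change over 60 s gave rate.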
RE007 growth inh – less growth of the S. pombe RE007 Vpr strain; S. pombe RE007 Vpr strain, BacTiter-Glo ATP luminescence, 24 h; control for the full effect not named in the record; hit rate 0.21% among 360,000; Potency, µM (top dose mostly 92.2 µM), for the others: at the top dose activity change, negative = less growth; active = well fitted falling curve with a large enough effect; inconclusive = small, poorly fitted or top-dose-only effect; inactive = no such curve, though single readings can be large or run the other way;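 also: % is scaled to controls: 0 for no effect and ±100 for the full control effect; nearly all actives have a fitted effect of over 50% in size; the assay follows cell death caused by Vpr and the record does not say whether a fall means rescue or toxicity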
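Fission yeast strain RE007, carrying one chromosomally integrated HIV-1 vpr copy, was seeded at OD 0.01 in PMG+AL medium with 23 nL pinned compound. After 24 h at 30 °C and 99% humidity, viability was read by BacTiter-Glo luminescence.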
Lassa entry inh – inhibitors of Lassa virus binding or cell entry; Lassa virus pseudotype entry inhibition, cell reporter; control for the full effect not named in the record; Potency, µM (doses to about 37.9 µM), for the others: at the highest dose activity change, negative = inhibition, hits mostly inhibitors; hit rate 1.2% among 300,000; AID 540256; active means well fitted inhibition curve with a large enough effect; inconclusive means small, poorly fitted or top-dose-only effect, or effect the other way; inactive means flat fitted curve, though single readings scatter; tested in HEK293 cells; also: % is scaled to controls: 0 for no effect and ±100 for the full control effect; nearly all actives have a fitted effect of over 50% in size; luciferase read-out
MARV entry inh – Marburg virus entry inhibition | Marburg virus pseudotyped entry inhibition, cell reporter; control for the full effect not named in the record; about a third of the inactives were read at about 46 µM | Potency, µM (highest dose often 37.8 µM), for inactives: at the top dose activity change, negative = inhibition, most hits filed as inhibitors | hit rate 1.8% among 300,000; active = well fitted inhibition curve with a large enough effect; inconclusive = small, poorly fitted or top-dose-only effect, or effect the other way; inactive = flat fitted curve, though single readings scatter; tested in HEK293 cells; about a fifth of its hits are not listed in these tables; also: % is scaled to controls: 0 for no effect and ±100 for the full control effect; luciferase read-out
2A StopGo – FMDV 2A StopGo reporter, luciferase signal; human cells with a luciferase reporter of 2A StopGo recoding; control for the full effect not named in the record; Potency, µM (series often up to 57.9 µM), without a hit: top-dose signal change, negative = less light; hit rate 1.2% among 410,000; AID 1159524; active = well fitted falling curve with a large enough effect; inconclusive = small, poorly fitted or top-dose-only effect; inactive = no such curve, though single readings can be large or run the other way; tested in HEK293T cells; also: % is scaled to controls: 0 for no effect and ±100 for the full control effect; nearly all actives have a fitted effect of over 45% in size; luciferase light after 4 h
SARS PLpro yeast – blocks SARS-CoV papain-like protease in a yeast assay. S. cerevisiae expressing SARS-CoV PLpro, growth rescue; control for the full effect not named in the record. Potency, µM (series often up to 32.9 µM), for the others: at the highest dose activity, positive = growth rescue. hit rate 0.19% among 330,000. AID 485353; also: 0% is about no effect; nearly all actives have a fitted effect of over 55% in size; growth read by luminescence after 48 h
Starred values were filed as active, the others as inactive; ? = inconclusive; . = not tested or not shown; [ ] = dose if it differs, or a comment. Unless noted, calls follow the shape of the dose curve; as a rule, active means well fitted rising curve with a large enough effect; inconclusive means small, poorly fitted or top-dose-only effect; inactive means no such curve, though single readings can be large or run the other way. Potency is read from the fitted curve at half-maximal effect. Hits appear at their usual frequency. Share with any hit: about 4.5%.

SMILES	2A StopGo	SARS PLpro yeast	Lassa entry inh	RE007 growth inh	Cruzain Triton	Cruzain noTriton	NS1 inh	MARV entry inh
Cc1nc(S(=O)(=O)Nc2ccccc2C(=O)NCC2CC2)cn1C	13%	2%	-1%[46.1 µM]	6%	.	.	1%	?
Oc1ccc(/C=N/Nc2ccc(C(F)(F)F)cn2)cc1O	23%	1%	?	-9%	.	.	.	?
CSc1cccc(NCc2ccc([N+](=O)[O-])cc2)c1	4%	0%	1%[46.1 µM]	9%	.	.	11%	16%[46.1 µM]
Oc1cccc2ccc(/C=C/c3cccs3)nc12	-9%	-19%	?	?	-10%	-8%	-208%	?
CN(C)CCCNc1cn[nH]c(=O)c1Cl	-16%	5%	-1%	9%	4.7%	-3%	6%	7%
CCOc1ccccc1N(CC(=O)NCCc1ccc(OC)c(OC)c1)S(=O)(=O)c1ccccc1	-16%	-1%	?	0%	.	.	-18%	?
O=C(N/N=C/c1ccco1)c1cc(-c2ccccc2)n[nH]1	33%[activator]	-3%	0%	13%	-4.2%	11%	8%	?
CCOc1ccc(N(CC(=O)N2CCCC2)S(=O)(=O)c2c(C)noc2C)cc1	-15%	-2%	.	2%	-7.2%	1%	5%	.
CCc1ccc(-c2nn(-c3ccccc3)cc2CSC(=N)N)cc1	40µM*	15%	?	-6%	-1.9%	-10%	30%	?
O=C(Nc1ccc(Cl)cc1)C1CCN(C(=O)c2ccco2)CC1	-6%	0%	-4%[46.1 µM]	1%	.	.	-4%	-26%[46.1 µM]
Cc1nn(Cc2c(Cl)cccc2Cl)c(C)c1NC(=O)c1sc2ccccc2c1Cl	0%	6%	-31%	0%	-5.8%	-3%	1%	?
COc1cccc(/C(O)=C2/C(=O)C(=O)N(CCCN3CCOCC3)C2c2ccncc2)c1 (centres undefined)	3%	2%	5%	2%	-6.1%	-5%	10%	26%
COc1ccc(C(C)=O)cc1CN1CCCCC1	-5%	4%	2%	2%	3.7%	-12%	9%	?
O=C(C1CCN(S(=O)(=O)c2ccc(-n3cnnn3)cc2)CC1)N1CCCCC1	-30%	1%	-3%	9%	.	.	-7%	?
Cn1c(SCC(=O)c2ccccc2)nnc1C1COc2ccccc2O1 (centres undefined)	6%	0%	10%[46.1 µM]	1%	.	.	4%	17%[46.1 µM]
CC1CCCC(C)N1CCCNC(=O)c1nn(C)c2c1CSc1ccccc1-2 (centres undefined)	21%	5%	.	-3%	.	.	1%	.
COc1cc(/C=N/n2cnc3c(sc4nc(C)cc(C)c43)c2=O)ccc1O	-13%	2%	2%	4%	.	.	2%	4%[46.1 µM]
Cc1ccc(C2(CCNCc3ccco3)CCOC(C(C)C)C2)cc1 (centres undefined)	-15%	-2%	.	-2%	.	.	-2%	.
Cn1cc(C(=O)N2CCCCC2)c2ccccc21	-10%	-2%	-4%[46.1 µM]	-8%	.	.	-1%	-2%[46.1 µM]
CCOC(=O)C1CCCN(S(=O)(=O)c2cc(-c3onc(C)c3C)ccc2OC)C1 (centres undefined)	0%	.	?	.	-1.9%	?	.	.

SMILES	2A StopGo	SARS PLpro yeast	Lassa entry inh	RE007 growth inh	Cruzain Triton	Cruzain noTriton	NS1 inh	MARV entry inh
Cc1cc2nc3c(nc2cc1C)C(O)=C3O	-27%	1%	.	28%	.	.	2%	.
Cn1cccc1C1CCCN1CC(=O)Nc1ccc(C#N)c(Cl)c1 (centres undefined)	-23%	8%	12%[46.1 µM]	-14%	.	.	.	-20%[46.1 µM]
CCOC(=O)N1CCN(C(=O)c2ccc(CS(=O)(=O)c3ccc(OC)cc3)o2)CC1	-11%	0%	.	-7%	-1.8%	-5%	0%	.
Cc1cc(N2CCN(C)CC2)nc2ccc(NC(=O)c3cccnc3Cl)cc12	-2%	-3%	0%	-8%	-1.2%	0%	3%	14%
NC(=O)C1CCN(C(=O)c2cccc(CN3C(=O)c4ccccc4C3=O)c2)CC1	-9%	7%	23%	8%	.	.	.	?
Cc1ccc(Oc2c(F)c(F)nc(N3CCCC3)c2F)cc1	1%	-22%	-5%	-20%	-2.8%	4%	-23%	4%
CC(C)c1cc(C(C)C)n2nc(N)nc2n1	-17%	1%	.	5%	.	.	3%	.
CC1CCN(S(=O)(=O)c2cccc(C(=O)Nc3ccccc3)c2)CC1	-24%	1%	0%	-8%	.	.	-2%	-27%[46.1 µM]
COc1ccc(/C=C(\NC(=O)/C=C/c2ccco2)C(=O)NCCc2nc3ccccc3[nH]2)cc1	5%	16%	-8%	12%	-16%	5%	8%	?
CN(C(=O)COC(=O)c1ccc2ccccc2n1)c1ccccc1	18%	8%	8%	15%	.	.	.	0%
CC(C)(C)C(=O)CSc1nc2ccccc2o1	29%	1%	13%	1%	.	.	.	1%[46.1 µM]
COc1cccc(C2(c3cccc(OC)c3)CC2C(=O)Nc2ccc(F)cc2)c1 (centres undefined)	42%[activator]	-17%	0%	10%	-4.6%	3%	6%	-9%
Cc1cc(C)c2cc(C#N)c(N3CCCN(C(=O)c4cnccn4)CC3)nc2c1	-6%	1%	-29%[46.1 µM]	9%	.	.	-4%	4%[46.1 µM]
Cc1cc(C(=O)N2CCCC(C(=O)c3ccc4ccccc4c3)C2)n(C)n1 (centres undefined)	-10%	0%	-16%[46.1 µM]	4%	.	.	-4%	-21%[46.1 µM]
O=C(Nc1cccc(S(=O)(=O)N2CCCC2)c1)c1cc(S(=O)(=O)N2CCOCC2)ccc1F	-14%	7%	22%	12%	.	.	.	-4%
O=C(NCc1ccccc1)C1(c2cccc(F)c2)CCCC1	2%	0%	-3%	5%	.	.	.	?
COc1ccc(C(=O)c2ccc(Cl)cc2)c(OC)c1OC	-2%	.	?	-16%	.	.	.	16%
COc1ccc(-c2noc(CSc3nnc(-c4ccncc4)n3-c3cccc(C)c3)n2)cc1OC	0%	.	-8%[46.1 µM]	.	-4.9%	6%	.	22%[46.1 µM]
CCOC(=O)c1cc(-c2ccccc2)sc1NC(=O)C(C)Sc1nnnn1C (centres undefined)	0%	-4%	-14%	8%	4.3%	?	-10%	?
O=C(CN1C2CCCC1CC(NC(=O)c1ccco1)C2)Nc1ccccc1 (centres undefined)	-16%	3%	-1%	9%	3.5%	-10%	-8%	-9%

SMILES	2A StopGo	SARS PLpro yeast	Lassa entry inh	RE007 growth inh	Cruzain Triton	Cruzain noTriton	NS1 inh	MARV entry inh
c1ccc2oc(-c3[nH]ncc3CN3CCSCC3)cc2c1	-19%	-2%	-16%[46.1 µM]	-5%	.	.	-2%	?
COCCNC(=O)C1CCN(S(=O)(=O)c2ccccc2)CC1	.	0%	2%	8%	4.3%	-2%	5%	4%
CN(C)c1ccc(CNC(=O)CCCN2C(=O)CCn3nc(-c4cccn4C)cc32)cc1	7%	.	4%[46.1 µM]	.	0.3%	13%	.	.
O=c1cc(CSc2nnnn2-c2ccc(O)cc2)nc2sccn12	-25%	0%	-26%[46.1 µM]	13%	.	.	19%	19%[46.1 µM]
CCC1CCCCN1C(=O)c1ccc2c(c1)N(Cc1cccc(Cl)c1)C(=O)c1ccccc1S2(=O)=O (centres undefined)	15%	.	?	.	-4.3%	-8%	.	.
Cc1c(N=C/C=C2\N(C)c3ccccc3C2(C)C)c(=O)n(-c2ccccc2)n1C	.	-1%	-14%	7%	-7.5%	-6%	-8%	?
O=C(C1CSC2(c3ccc(F)cc3)CCC(=O)N12)N1CCCCCC1 (centres undefined)	-5%	-1%	27%	5%	0.6%	5%	1%	-6%
Cc1ccc2ncc(S(=O)(=O)c3ccccc3)c(N3CCCCC3C)c2c1 (centres undefined)	?	-9%	.	-6%	-6.1%	7%	-26%	?
O=C1CCC(C(=O)Nc2cccc(S(=O)(=O)N3CCOCC3)c2)N1 (centres undefined)	-5%	-1%	8%[46.1 µM]	-9%	.	.	.	21%[46.1 µM]
COc1ccc(C(=O)N2CCN(c3ccc([N+](=O)[O-])c(NCCc4ccc(OC)c(OC)c4)c3)CC2)cc1	8.9µM*	4%	4.5µM*	5%	-4.8%	?	5%	?
O=C(CC(=O)Nc1ccc(F)cc1)Nc1ccc(F)cc1	11%	1%	14%[46.1 µM]	-10%	.	.	-2%	-21%[46.1 µM]
Cc1ccc(O)c(NC(=O)c2ccccc2-c2ccccc2C(=O)O)c1	-20%	3%	25%	9%	.	.	3%	14%
CN(C)c1ccc(N=Cc2nc(-c3ccccc3)oc2OC(=O)c2cccc(Cl)c2)cc1	18%	-14%	-29%	-13%	-23%	20µM*	6%	?
Cc1onc(-c2ccccc2Cl)c1C(=O)N1CCCCCC1	-9%	1%	.	8%	.	.	2%	?
O=C(c1nnc(-c2ccccc2)o1)C1CC1	38%[activator]	2%	-2%[46.1 µM]	-15%	.	.	.	-1%[46.1 µM]
COc1ccc(OC)c(NC(=O)Nc2cnccn2)c1	-4%	1%	9%[46.1 µM]	-4%	.	.	-12%	-12%[46.1 µM]
COc1ccc(CC(=O)N(C)CC(=O)Nc2ccccc2C(F)(F)F)cc1S(=O)(=O)N1CCOCC1	14%	0%	2%	2%	.	.	.	8%
O=C(COC(=O)CCC1CCCC1)NCc1ccc(Cl)cc1	-9%	3%	13%[46.1 µM]	-7%	.	.	.	0%[46.1 µM]
Cc1ccc2cc(CN(C(=O)c3cccs3)c3ccccc3)c(=O)[nH]c2c1	-20%	0%	-5%	-3%	.	.	12%	-14%[46.1 µM]
CN(C)c1nc(SCc2ccccc2Cl)nc2c1CCCC2	-17%	-40%	-4%	-11%	-1.7%	3%	-37%	-13%
Cc1ccc(O)c(C2=Nc3ccccc3N=C(c3ccco3)C2)c1	-21%	-3%	6%	-6%	-0.3%	17%	1%	-18%
O=C(c1cc(Cl)nc2ccccc12)N(Cc1nnc(-c2ccccc2Cl)o1)C1CC1	?	.	-29%	-13%	.	.	.	-12%
